Source: PubChem BioAssay
TRPML1 ag: activates the human TRPML1 channel; TRPML1-expressing cells, Ca2+ dye fluorescence, FDSS; host cell line not named in the record; reference of the full effect not given here; activation, % (test concentration not listed); actives 0.12% (n = 410,000); in the data active = activation above about 50%; inconclusive = about 30% to 50%; inactive = below about 30%; note: 0% is about no effect; the text of the record puts the active cut at 80%
Target sequence (Q9GZU1 whole entry, looked up): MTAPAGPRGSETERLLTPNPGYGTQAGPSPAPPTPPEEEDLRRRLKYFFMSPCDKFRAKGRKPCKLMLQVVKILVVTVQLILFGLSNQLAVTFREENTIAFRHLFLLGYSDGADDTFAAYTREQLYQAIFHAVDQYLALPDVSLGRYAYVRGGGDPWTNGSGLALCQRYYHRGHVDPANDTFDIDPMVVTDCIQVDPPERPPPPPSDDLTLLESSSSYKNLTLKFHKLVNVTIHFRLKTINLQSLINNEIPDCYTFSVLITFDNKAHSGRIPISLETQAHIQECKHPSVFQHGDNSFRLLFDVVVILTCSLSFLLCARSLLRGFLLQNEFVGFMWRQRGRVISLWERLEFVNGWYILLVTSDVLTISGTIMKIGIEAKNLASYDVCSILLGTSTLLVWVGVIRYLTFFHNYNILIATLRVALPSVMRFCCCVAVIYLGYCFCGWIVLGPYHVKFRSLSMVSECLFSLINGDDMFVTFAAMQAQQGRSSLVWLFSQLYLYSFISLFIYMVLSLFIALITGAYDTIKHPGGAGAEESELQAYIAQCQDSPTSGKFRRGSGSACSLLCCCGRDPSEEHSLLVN
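Tetracycline-induced TRPML1-DL cells are seeded and incubated overnight before loading with a no-wash Ca2+ dye and quencher. Agonist activity is taken from the 110 s fluorescence read following compound pin-transfer on an FDSS, before EC80 54-4 challenge.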
PINK1 modulator: PINK1 expression modulation. PINK1 immunofluorescence, high-content cytometry, 24 h. Potency, µM (top dose mostly 76.6 µM), without a hit: at the highest dose activation (PINK1 increase), actives largely listed as activators. actives 0.2% (n = 410,000); active = well fitted activation curve with a large enough effect; inconclusive = small, poorly fitted or top-dose-only effect; inactive = flat fitted curve, though single readings scatter; cell line not stated here;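 note: potency is the fitted concentration of half-maximal effect; % of control where 0% means no effect; nearly all actives have a fitted effect of over 65% in size; a mitochondrial uncoupler was the plate control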
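Measures PINK1 amount and localization on or inside mitochondria by immunofluorescence. Stable cells get compounds at 5 concentrations for 24 hours before fixation and staining; CCCP controls included.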
D2 ag: agonists of human D2 dopamine receptor (beta-arrestin) | activation, % (no concentration beside the values) | DiscoveRx PathHunter D2 beta-arrestin, luminescence, 90 min; 100% = 57 uM dopamine signal | P14416 | actives 0.084% (n = 360,000); in the data active = activation above about 40%; inconclusive = about 15% to 40%; inactive = below about 15%; note: compound concentration not given in the record; the text of the record calls up to 30% inactive
Target sequence (P14416 whole entry, looked up): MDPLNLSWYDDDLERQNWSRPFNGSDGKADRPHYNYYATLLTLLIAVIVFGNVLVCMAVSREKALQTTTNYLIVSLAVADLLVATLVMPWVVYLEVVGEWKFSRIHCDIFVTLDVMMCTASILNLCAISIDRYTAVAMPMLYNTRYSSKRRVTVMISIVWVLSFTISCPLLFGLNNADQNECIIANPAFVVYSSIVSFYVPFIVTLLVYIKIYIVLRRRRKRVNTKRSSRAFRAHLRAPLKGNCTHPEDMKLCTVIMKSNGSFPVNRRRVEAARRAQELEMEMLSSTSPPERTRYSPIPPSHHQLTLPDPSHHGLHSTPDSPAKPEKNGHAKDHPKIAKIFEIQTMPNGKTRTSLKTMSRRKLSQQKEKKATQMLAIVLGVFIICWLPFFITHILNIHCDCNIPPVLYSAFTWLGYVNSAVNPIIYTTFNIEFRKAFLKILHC
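Agonist mode: compounds alone added to overnight-plated D2 PathHunter cells for 90 min at 37 C, with 57 uM final dopamine (EC100) defining full response. Beta-arrestin recruitment detected by chemiluminescent reagent, read after 1 h at ambient temperature.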
Six1-Eya2 blk: inhibitors of human Six1/Eya2 interaction; activity change, % (test concentration not listed); Q15475+O00167; AlphaScreen GST-Six1/His-Eya2 binding, biochemical; active compounds read low; control for the full effect not named in the record; actives 0.56% (n = 360,000); in the data active = activity change below about -65%; inconclusive = about -30% to -65%; inactive = above about -30%; note: % is set by controls: 0 for no effect and ±100 for the full control effect
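GST-Six1 + His-Eya2 (5X stock: 250/500 nM); Tris pH 8.0, 300 mM NaCl, 0.05% BSA, 0.02% Tween 20; GSH donor/Ni acceptor beads; 1 h 37 °C dark; AlphaScreen readout.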
TRPML1 inh: human mucolipin-1 channel inhibition; activity change, negative = inhibition, % (test concentration not listed); Q9GZU1; actives 0.02% (n = 390,000); TRPML1-inducible cells, Ca2+ dye fluorescence, FDSS; active compounds read low; inhibition of EC80 agonist-evoked calcium signal; in the data active means activity change below about -50%; inconclusive means about -30% to -50%; inactive means above about -30%;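 note: stimulus is agonist 54-4 at its EC80 concentration; % is set by controls: 0 for no effect and ±100 for the full control effect; compound concentration not given in the record; the text of the record puts the active cut at -80%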
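Calcium fluorescence in TRPML1-DL cells induced overnight with Tet: a 110 s read after compound pin addition, then a 110 s antagonist read after challenge with 54-4 at 4 uM final (EC80).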
D2 PAM: positive allosteric modulators of human D2 dopamine receptor. actives 0.23% (n = 360,000). P14416. DiscoveRx D2 beta-arrestin cells, luminescence, 90 min; 100% = 57 uM dopamine signal. AID 624464. potentiation, % (concentration not given with the values); active = potentiation of 50% or more; inconclusive = 30% to 50%; inactive = 30% or less;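 note: compound concentration not given in the record; tested on top of an EC20 dose of dopamine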
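PathHunter D2 cells, attached overnight at 37 deg C, received compound in DMSO plus dopamine at EC20 (50 nM final) for 90 min at 37 deg C. Beta-arrestin recruitment was read as luminescence after 1 h with detection reagent at ambient temperature.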
Numbers without * were called inactive; ? = inconclusive; · = no result given; [ ] = another dose, or the depositor's remark. Hits appear at their usual frequency, and some 1% of all compounds hit somewhere here.

SMILES	TRPML1 ag	PINK1 modulator	D2 ag	Six1-Eya2 blk	TRPML1 inh	D2 PAM
CC1CCCN(C(=O)CCS(=O)(=O)c2ccc3c(c2)n(C)c(=O)c(=O)n3C)C1 (configuration not stated)	1.4	3.5%	2.6	9.8	-6.8	-3.3
CC(=O)C(Cc1ccccc1)NC(=O)CCl (configuration not stated)	0.9	2.3%	-18.6	4.0	-3.6	-8.2
C/C(=N\NC(=O)c1ccc2c(c1)OCCO2)c1ccccc1	0.9	-0.8%	-3.8	4.2	34.1	-5.6
COC(=O)C(C)Sc1nc2c(cnn2-c2ccc(C)cc2)c(=O)[nH]1 (configuration not stated)	-0.4	1.6%	2.3	-0.9	-5.3	0.0
CCN(CC(O)c1cccc(O)c1)C(=O)C12CC3CC(CC(C3)C1)C2 (configuration not stated)	1.1	4.5%	-2.4	-6.3	10.6	-6.5
COC(=O)Cc1c(C)c2c(OCc3nn[nH]n3)cc(C)cc2oc1=O	-0.3	0.7%	-6.2	-2.0	9.8	-22.7
COc1ccc(C2SCCN2S(=O)(=O)c2ccccc2)cc1 (configuration not stated)	3.4	2.2%	-0.7	9.2	55.5	-9.0
CN(C)CCCNC(=S)Nc1ccc(Br)cc1	-0.1	-1.5%	-4.6	0.0	4.6	-30.7
O=C(NC(Cc1ccccc1)C(=O)O)/C(=C\c1ccco1)NC(=O)c1ccc(Br)cc1 (configuration not stated)	0.0	0.4%	-4.3	-4.0	10.2	-16.5
COc1ccc(CNC(=O)COc2ccc([N+](=O)[O-])cc2)cc1	?	-5.5%	-2.7	18.4	-0.2	-12.7
COC(=O)c1nnn(-c2nonc2N)c1CSc1nnc(N)s1	-0.5	-0.5%	-1.4	4.4	-6.8	-2.8
O=C(O)/C(=C\c1ccco1)NC(=O)c1ccc(Br)o1	-0.1	0.7%	-8.8	3.2	-6.7	-21.9
COc1ccc(N2CCN(CC(=O)Nc3ccc(-n4cnnn4)cc3)CC2)cc1	0.7	·	-1.1	1.0	19.9	-16.6
COc1cccc(-n2cc3c(c2-c2ccccc2)c(=O)n(C)c(=O)n3C)c1	0.8	0.6%	0.3	-6.8	26.9	5.7
O=Cc1ccc(OCC(=O)N2CCc3ccccc32)c(Br)c1	0.8	6.9%	-0.4	9.8	11.0	18.5
O=C(Oc1ccc([N+](=O)[O-])cc1)c1ccc2ccccc2n1	0.5	-6.6%[38.3 µM]	-1.9	-5.4	34.8	-9.3
O=C(NCCn1cccn1)C1CCC(=O)N(CCc2ccccc2)C1 (configuration not stated)	0.2	1.1%	-3.0	-1.3	-0.1	-6.7
O=C(NC1CC2CCC(C1)N2C(=O)NCc1ccccc1)C1CC1 (configuration not stated)	-0.1	0.7%	-2.0	14.0	-5.8	-1.2
CCCCNC(=O)C(NC(=O)c1ccc(=O)[nH]c1)C(=O)c1ccccc1 (configuration not stated)	-0.8	1.6%	-7.8	0.4	·	-1.7
COc1ccc2c(c1)cc(C)c1nnc(SCC(=O)N(C)c3nc(-c4ccccc4)cs3)n12	0.0	-0.2%	0.8	2.2	-12.4	-3.2
CC(C)=CCN1CCN(Cc2cccn2-c2ncccn2)CC1CCO (configuration not stated)	0.5	0.9%	0.8	2.1	11.0	-4.2
O=C(CNC(=O)c1cccs1)N/N=C/c1ccc(O)cc1O	-0.6	-0.7%	-2.6	-86.2*	-8.1	-11.4
CC1CC(C)CN(CCCNC(=O)c2ccc(CNS(=O)(=O)c3ccc(F)cc3)cc2)C1 (configuration not stated)	-0.2	-0.5%	-11.2	0.1	4.9	-33.4
O=C(C(Cl)Cl)N1c2ccccc2OCC1c1ccccc1 (configuration not stated)	0.1	-2.6%	-4.6	0.2	6.3	-5.4
CNC(=O)c1ccc(NC(=O)CN2c3cccc4cccc(c34)S2(=O)=O)cc1	3.0	2.1%	3.8	-7.1	3.7	23.2

Exported with values under each structure: part of the list above.
Value order: TRPML1 ag | PINK1 modulator | D2 ag | Six1-Eya2 blk | TRPML1 inh | D2 PAM
> O=Cc1ccc(OCC(=O)N2CCc3ccccc32)c(Br)c1
    0.8 | 6.9% | -0.4 | 9.8 | 11.0 | 18.5
> COc1ccc(CNC(=O)COc2ccc([N+](=O)[O-])cc2)cc1
    ? | -5.5% | -2.7 | 18.4 | -0.2 | -12.7

(list continues)
SMILES	TRPML1 ag	PINK1 modulator	D2 ag	Six1-Eya2 blk	TRPML1 inh	D2 PAM
Cc1ccc(NC(=O)c2ccc([N+](=O)[O-])cc2)cc1S(=O)(=O)N(C)C	-0.2	-0.6%	6.5	-0.9	19.1	12.5
CSc1ccccc1NC(=O)CN1CCCCC1C (configuration not stated)	2.1	5.2%	5.3	5.6	10.2	-3.4
CCCCNC(=O)c1ccccc1NC(=O)C1=C(C)OCCS1	1.2	-1.9%	-2.5	0.9	-10.6	-6.7
CCOc1ccc(NC(=O)N(O)C2(C#N)CCCCC2)cc1	0.0	-1.1%	-0.7	0.1	-9.6	1.1
CC(C)NC(=O)Nc1cccc(Cl)c1	0.7	0.0%	-3.8	2.8	27.5	-4.6
O=C1c2ccccc2-c2onc3c(NCCO)cc(NC4CCCCC4)c1c23	0.4	0.5%	·	·	6.8	·
O=C(O)c1cn(-c2ccccc2)nc1-c1ccc(Cl)cc1	-0.6	-3.5%[38.3 µM]	-0.2	23.1	-15.9	-5.3
CCn1c(=NC(=O)c2ccc3c(c2)OCCO3)sc2c(C)ccc(OC)c21	1.1	-0.1%	·	·	-23.2	·
Cc1c(Cl)c(C(F)(F)F)nn1CC(=O)NCc1ccco1	-0.9	-0.2%	0.2	0.6	0.8	-8.0
COC(=O)c1cc(NC(=O)CSC2=NCCS2)cc(C(=O)OC)c1	1.1	0.4%	-0.6	-12.2	-3.8	-4.1
Cc1cccc(NC(=O)C(C)SCc2nc3sc4c(c3c(=O)[nH]2)CCCC4)n1 (configuration not stated)	0.2	2.2%	-0.6	-5.2	-7.7	-2.5
COc1ccc(OCCCC(=O)Nc2ccc3c(c2)OCCO3)cc1	0.1	-1.0%[38.3 µM]	0.4	-1.4	24.9	-4.1
C/C(=N\NC(=O)c1ccccc1OCc1ccc(F)cc1)c1ccccn1	0.7	21.6%	5.5	?	12.7	1.2
O=C(O)c1cc(NC(=O)c2ccco2)cc(NC(=O)c2ccco2)c1	0.4	1.2%	-4.8	9.0	-2.8	-8.3
COC(=O)c1c(NC(=O)CCCOc2cccc(C)c2)sc2c1CCC(C)C2 (configuration not stated)	-0.8	2.9%	·	·	-9.6	·
CSc1nc2sc3c(c2c(=O)n1Cc1ccccc1)CCC(C(C)(C)C)C3 (configuration not stated)	0.2	0.0%	·	·	3.3	·
CCOc1ccc(N2C(=O)N(Cc3c(F)cccc3Cl)c3ccccc3S2(=O)=O)cc1	-0.2	2.3%	·	·	4.7	·
CN1CCN(c2ncnc3c2ncn3[C@H]2CN(Cc3ccc(C(=O)O)cc3)C[C@@H](CO)O2)CC1	0.1	0.3%	3.4	4.4	·	3.0
CCN(CC)CCCn1c2c(c(SCC(=O)Nc3cccc(C)c3C)nc1=O)CCC2	-0.4	0.1%	-3.3	1.4	8.9	-3.4
O=C(Nc1ccc(Cl)cc1C(=O)O)c1ccc2c(c1)C(=O)N(Cc1ccco1)C2=O	1.5	1.1%	0.4	3.6	-13.8	-4.8
COc1ccc(-c2nn3c(=O)cc(CN4CCN(C(=O)Nc5cc(C)ccc5C)CC4)nc3s2)cc1	-0.1	-1.6%	·	·	-15.7	·
COc1cccc2sc(N(Cc3cccnc3)C(=O)C3COc4ccccc4O3)nc12 (configuration not stated)	0.5	-0.4%	·	·	9.4	·
c1cn2c(-c3ccc(N4CCOCC4)cc3)cncc2n1	-0.8	0.3%	-2.1	-3.1	·	1.4
O=C(CSc1nc2ccccc2s1)NNC(=S)Nc1ccc(Br)cc1	1.8	0.0%	-10.8	-18.0	-12.0	-26.8
COc1ccc(-c2n[nH]c(=S)n2-c2ccc(C)cc2C)cc1	-0.1	0.5%	12.6	-4.8	13.1	-7.6

(list continues)
SMILES	TRPML1 ag	PINK1 modulator	D2 ag	Six1-Eya2 blk	TRPML1 inh	D2 PAM
COC(=O)c1ccc(-n2nnc(-c3nc(-c4ccc5c(c4)OCO5)no3)c2C)cc1	0.4	-0.9%	·	·	12.3	·
Cc1cccc(C)c1NC(=O)c1ccc2nc(CCc3ccccc3)oc2c1	2.5	2.3%	·	·	35.6	·
CCN(C(=O)CSc1ncccn1)c1cccc2ccccc12	-1.9	3.2%	2.8	-2.5	-6.5	-11.5
CCCCN1C(=O)C(CC(=O)NCCN2CCOCC2)CC(C(=O)N(C)C)=C1C (configuration not stated)	·	2.1%	-1.9	1.5	·	·
O=C(Nc1ccc(S(=O)(=O)Nc2nccs2)cc1)c1cc(=O)[nH]c2ccccc12	0.1	-0.3%	-3.2	-0.3	12.7	-8.7
C=CCC1NS(=O)(=O)OC2CCCCC12 (configuration not stated)	-0.5	0.2%	1.6	2.4	32.4	-43.5
O=C(CSCc1cnn(-c2ccccc2)c1-n1cccc1)NCc1ccccn1	0.0	-0.9%	-0.5	-12.4	-0.6	-1.3
CCSc1ccccc1C(=O)Nc1cc(C)on1	-0.7	1.9%	-1.2	-0.8	16.2	1.2
Cc1ccc(NC(=O)CCC(=O)NNC(=O)COc2ccc([N+](=O)[O-])cc2)c(C)c1	-0.6	4.6%	-3.3	4.9	4.4	6.5
Cc1cccc(NC(=O)c2ccccc2NC(=O)Cc2ccccc2)c1C	0.3	1.2%[38.3 µM]	-1.3	3.2	29.9	-1.1
Cc1[nH]n(-c2cccc([N+](=O)[O-])c2)c(=O)c1-c1ccccc1	-0.6	0.2%	-6.8	-9.8	48.0	5.4
Fc1cnc(N2CCN(c3ccccc3)CC2)nc1N1CCN(c2ccccc2)CC1	0.2	4.1%	8.9	-1.6	16.0	-9.6
c1ccc(C[n+]2ccc3ccccc3c2)cc1	-0.4	0.1%	-4.2	-13.3	22.7	-5.0
CCNC(=S)N/N=C/c1c(Cl)cccc1Cl	0.8	3.7%	-5.5	-1.5	5.0	-8.7
Cc1ccc(OCC(=O)Nc2ccc3nc(SCC(=O)N4CCOCC4)sc3c2)cc1	4.3	2.9%	·	·	15.7	·
CCO/C=C1\C(=O)N(c2ccccc2)C(=O)c2ccccc21	0.8	5.0%[38.3 µM]	-0.1	6.9	24.5	6.8
O=C1CC(C(=O)N2CCc3ccccc32)CN1c1ccccc1 (configuration not stated)	0.5	-0.7%	-2.3	8.9	0.3	-4.9
COc1ccc2c(CNCCc3ccco3)c(C(=O)O)n(Cc3ccc(C)cc3)c2c1	0.3	-0.8%	·	·	2.9	·
COc1ccc(C2SCCN2C(=S)Nc2ccc(Cl)cc2)cc1 (configuration not stated)	1.8	6.3%	1.5	11.6	-2.8	-10.4
COc1cc2nc(=S)n3[nH]c(CCn4nc(C)cc4C)nc3c2cc1OC	1.8	1.8%	-6.5	-27.2	0.0	-17.5
CNc1sc(C(=O)c2ccccc2F)c(N)c1-c1nc2ccccc2s1	0.0	·	-6.0	-20.6	-11.0	-3.8
CCOc1ccccc1C(=O)NCCN1CCC(n2c(=O)[nH]c3ccccc32)CC1	-0.6	0.0%	·	6.0	·	·
Cc1cc(Br)ccc1NC(=O)CN(C)C(=O)C1CCN(C(=O)c2ccc(Cl)cc2)CC1	0.1	1.5%	7.0	-10.2	0.5	-2.9
Cc1c(CNCCc2ccccc2Cl)c(C(=O)O)c(C)n1-c1ccccc1	0.6	0.3%	-1.1	-16.7	45.2	-13.9
